# Assay outcomes deposited in PubChem by National Center for Advancing Translational Sciences (NCATS).
# Vaccinia Venus – qHTS for Stage-Specific Inhibitors of Vaccinia Orthopoxvirus: Venus Reporter Primary qHTS; Vaccinia virus Venus reporter expression, fluorescence; Potency, µM (doses to about 36.5 µM), for inactives: at the top dose activity change, negative = inhibition, hits mostly inhibitors; 330,000 tested, 0.46% active; AID 720580, 2013; active means well fitted inhibition curve with a large enough effect; inconclusive means small, poorly fitted or top-dose-only effect; inactive means no such curve, though single readings can be large or run the other way; tested in A549 cells; further: nearly all actives have a fitted effect of over 30% in size; inactives centre near -10
# VACV mCherry inh – qHTS for Stage-Specific Inhibitors of Vaccinia Orthopoxvirus: mCherry Reporter Primary qHTS; Vaccinia virus mCherry reporter infection, fluorescence; about a quarter of the inactives have no number; Potency, µM (top dose mostly 36.5 µM), for inactives: at the top dose activity change, negative = inhibition, actives largely listed as inhibitors; 310,000 tested, 0.63% active; AID 720579, 2013; active = well fitted inhibition curve with a large enough effect; inconclusive = small, poorly fitted or top-dose-only effect; inactive = no such curve, though single readings can be large or run the other way; tested in A549 cells; further: nearly all actives have a fitted effect of over 35% in size; inactives centre near -10
# * marks the source's active call; other numbers are inactive results; i = inactive; ? = inconclusive; . = no result given; & = joins results of further samples; [ ] = dose if it differs, or a comment. On the % scale 0 is the no-effect control and ±100 the full control effect; potency means the concentration at half of the fitted maximal effect.
compound	Vaccinia Venus	VACV mCherry inh
CC1CC(C)CN(CCCn2c(=S)[nH]c3ccccc3c2=O)C1 (centres undefined)	-6%	.
O=c1[nH][nH]c(=O)c2c(NS(=O)(=O)c3ccccc3)cccc12	-12%	-17%
COc1cc(C(=O)NCCc2ccc(F)cc2)ccc1OCC(=O)N1CCOCC1	-4%	i
COc1ccc(N2CCN(CCNC(=O)C3CCN(S(=O)(=O)c4cccs4)CC3)CC2)cc1	-21%	-14%
COc1c(Cl)cc(C(=O)NN)cc1Cl	?	?
O=C(NC(=S)N1CCN(c2c(Cl)cccc2[N+](=O)[O-])CC1)c1cccs1	-19%	-26%
COc1ccc(C(O)c2nccn2C)cc1 (centres undefined)	-6%	-1%
COc1ccccc1CNC(=O)CCCc1nnc2n(CC(C)C)c(=O)c3sccc3n12	-2%	-10%
O=C(CNc1cc(S(=O)(=O)N2CCOCC2)ccc1N1CCCC1)NCc1ccco1	-11%	-11%
C[C@H]1CN([C@@H](C)CO)C(=O)c2cc(Br)cnc2O[C@@H]1CN(C)C(=O)c1ccncc1	-10%	i
O=C(CNC(=O)c1ccco1)OCc1c(F)cccc1Cl	-8%	-9%
Cc1nnc(NC(=O)CSc2nccn2-c2cccc(Cl)c2)s1	-1%	i

# Complete entries, looked up by structure.
# Cc1nnc(NC(=O)CSc2nccn2-c2cccc(Cl)c2)s1 in the list: Vaccinia Venus = -1%; VACV mCherry inh = i
# COc1ccccc1CNC(=O)CCCc1nnc2n(CC(C)C)c(=O)c3sccc3n12 in the list: Vaccinia Venus = -2%; VACV mCherry inh = -10%
# O=C(CNC(=O)c1ccco1)OCc1c(F)cccc1Cl in the list: Vaccinia Venus = -8%; VACV mCherry inh = -9%

# Remaining list, next part:
compound	Vaccinia Venus	VACV mCherry inh
COc1ccc(C)c2sc(NC(=O)c3ccc(S(=O)(=O)N(C)C)cc3)nc12	?	?
Nc1nc(SCC(=O)Nc2ccccc2C(F)(F)F)[nH]c(=O)c1-c1ccccc1	-11%	-14%
Cc1ccc(NC(=O)CCNS(=O)(=O)c2ccc3[nH]c(=O)oc3c2)cc1	-16%[7.34 µM]	-23%[7.34 µM]
O=C(NCCN1CCOCC1)C(=O)NCC1CCCO1 (centres undefined)	-9%	i
Cc1cnc(N=Nc2ccccc2)[nH]1	0%	-11%
COc1cccc(-n2c(-c3cccc(S(=O)(=O)N(C)C)c3)n[nH]c2=S)c1	-11%	i
C=CCN1C(=O)C2(OCCO2)c2cc(C)ccc21	-17%	i
CN(CC(=O)C(C(N)=O)c1ccccc1)c1ccccc1 (centres undefined)	-13%	i
COc1ccc(CCNC(=O)[C@@H](NC(=O)c2ccccc2F)C(C)C)cc1OC	-9%	i
Cc1ccccc1COC[C@H](CC(C)C)N1CCN(C(=O)c2cccc(C(F)(F)F)c2)CCC1=O	-23%	i
CC1(C)CCCC2=C1CC1C(=O)N(c3ccccc3)C(=O)C1C2 (centres undefined)	-15%	.
O=C(Cn1ccn(-c2ccc(F)cc2)c(=O)c1=O)Nc1ccc(F)cc1	-6%	-6%
COC(=O)[C@@]1(C)[C@H]2C(=O)N(C)C(=O)[C@H]2[C@H]2CN=C(SCc3ccc(Cl)cc3)N21	-28%	0%
Cc1nc(N/N=C/c2ccc(O)cc2O)cc(N2CCOCC2)n1	?	1.1µM*
COc1ccc(C(=O)NN2C(=O)C3C(c4ccccc4)C=CC(c4ccccc4)C3C2=O)cc1 (centres undefined)	-9%	-15%
COc1ccc(NC(=O)c2nc3ccccc3s2)cc1	-26%	-15%
Cc1cc(C)c2nc(C)cc(Nc3ccc(C(=O)N4CCOCC4)cc3)c2c1	-3%	-17%
O=C(Nc1ccc(OCC(=O)N2CCOCC2)cc1)Nc1cccc(Cl)c1	6%	i
Cc1ccc2nc(NC(=O)c3cccs3)sc2c1	?	-11%
O=C(/C=C/c1ccccc1)NCc1cccnc1	-14%	i
CCCNC(=O)C1(C)CCCN(C(=O)c2ccc(F)c(Cl)c2)C1 (centres undefined)	-4%	22%
N#C/C(=C/c1ccc(N2CCOCC2)o1)c1nc2ccccc2[nH]1	i	.
CCOC(=O)c1cc(-c2cc3ccccc3o2)n[nH]1	-2%	-9%
CC1(c2ccccc2)NC(=O)N(CC(=O)Nc2nnc(C3CC3)s2)C1=O (centres undefined)	-7%	0%
CCN(c1ccccc1)S(=O)(=O)c1ccc(C(=O)N2CC(C)CC(C)C2)cc1 (centres undefined)	-11%	-14%
Cc1cccc(CN2CCC(n3nccc3NC(=O)CCCc3ccccc3)CC2)n1	-11%	i
CCCCNC(=O)c1onc(CSc2ccc(F)c(F)c2)c1C(=O)O	-5%	i
CCCc1cc(C(=O)NCc2cccnc2)no1	12%	-6%
CCc1ccc(OCC(=O)Nc2ccc(S(=O)(=O)Nc3cc(C)on3)cc2)c(Br)c1	-7%	-16%
COCc1ccc(CN2CCOc3c(cc(-c4cc(C)c5cccc(OC)c5n4)cc3OC)C2)o1	4%	-19%
CC1CN(C(=S)NC(=O)c2cccc([N+](=O)[O-])c2)CC(C)O1 (centres undefined)	-4%	.
COCCCNC(=S)N1CCC(NC(=O)c2ccco2)CC1	-3%	3%
Cc1ccc(S(=O)(=O)NCC(=O)OCC(=O)NCCc2ccccc2)cc1	-5%	i
CNC(=O)c1c(NC(=O)c2ccco2)sc2c1CCCC2	-15%	-9%
c1ccc(-c2nnc(-c3ccncc3)o2)cc1	-16%	-18%
CC(C)(C)NC(=O)c1ccc2c(c1)N(CC(=O)N1CCN(c3ccc(F)cc3)CC1)C(=O)C(C)(C)O2	-6%	-9%
CCc1cccc2c3c([nH]c12)C(CC)(CC(=O)O)OCC3 (centres undefined)	-12%&-7%	-19%
CC(=O)O[C@H]1CSC[C@H]1NC(=O)c1ccccc1	-15%	.
CCOc1ccc(N2CC(NC(=O)c3ccco3)CC2=O)cc1 (centres undefined)	-7%	-10%
S=C(Nc1ccc(Cl)cc1Cl)Nc1ccccc1Oc1ccccc1	?	.
CCC(C(=O)NCc1ccccc1Cl)n1nc(C)c2sc3ccccc3c2c1=O (centres undefined)	-9%	-9%
CCC12CN3CCN(CC(C3)/C1=N\NC(=O)c1ccc(F)cc1)C2	1%	-4%
Cc1c(C(=O)N2CCCCC2)nnn1-c1nonc1N	-9%	-15%
COc1cc2c(ccc3cc(OC)c(OC)c(O)c32)cc1O	-20%	-10%
CC(=O)Nc1nc2ccccc2n1Cc1ccccc1C	?	-22%
CCc1cccc(NC(=O)Cn2c(=O)n(-c3cccc(Cl)c3)c(=O)c3c2c2cc(C)ccc2n3C)c1	-12%	-2%
S=C(NCc1ccco1)N1CCN(c2ccc(Cl)cc2)CC1	-20%	?
O=C(CN1C(=O)c2ccccc2C1=O)OCC(=O)c1ccc(F)cc1	-4%	-8%
CCCOc1ccc(CN(C(=O)c2nc(SC(C)C)ncc2Cl)C2CCS(=O)(=O)C2)cc1 (centres undefined)	-2%	-13%
Cc1ccccc1NC(=O)Cc1nc(COC(=O)c2cc(Cl)ccc2O)cs1	-4%	i
CC(Sc1ncccn1)C(=O)NC1CCCC1 (centres undefined)	-1%	i
O=C(COc1coc(CN2CCN(c3ccccc3F)CC2)cc1=O)N1CCc2ccccc21	-6%	i
O=C(Nc1cccnc1)C12CC3CC(CC(C3)C1)C2	2%	1%
NNC(=O)COc1ccccc1F	3%	-13%
Cc1ccccc1CNC(=O)C1CCN(c2nnc(C)c3c(C)n(-c4ccccc4)nc23)CC1	-30%	-26%
O=C(OCc1cc2ccccc2[nH]c1=O)c1cccs1	-13%	-24%
CC(=O)c1cccc(NC(=O)N2CCCC2C(=O)Nc2cccc(C)c2)c1 (centres undefined)	-8%	-5%
CCCc1nn2c(=O)cc(CSCC(=O)Nc3ccccc3OC)nc2s1	0%	-18%
C=CCOc1ccc(CC2C(=O)N(C)C(=O)N(C)C2=O)cc1	2%	-13%
N=C1/C(=C\c2coc3ccccc3c2=O)C(=O)N=C2SC(c3ccncc3)=NN12	14%	-9%

# Next section.
compound	Vaccinia Venus	VACV mCherry inh
CC1CCCC(C)N1C(=O)COC(=O)c1ccc(O)cc1 (centres undefined)	-5%	-16%
CCc1cc(=O)oc2c(C)c(OCC(=O)NCCCN3CCOCC3)ccc12	-12%	-14%
Cc1ccc(C)c(N2CCN(C(=O)c3cc4c(=O)n(Cc5ccco5)ccc4nc3C)CC2)c1	-16%	-21%
Cc1ccnc(NC(=O)C2CCN(S(=O)(=O)c3ccc4ccccc4c3)CC2)c1	-18%	-7%
CCOc1cccc(-c2nc3cc(C)ccc3o2)c1	-8%	2%
O=C(NC1CCCC1)c1ccc2c(c1)N(Cc1ccc(F)cc1)C(=O)c1ccccc1S2	-1%	1%
COc1ccc(NC(=O)CSc2nc(C)cc(C(F)(F)F)n2)cc1	-14%	.
C=CCn1c(SCC(C)=O)nc2scc(-c3ccco3)c2c1=O	3%	i
COc1ccc(C2CC(c3cccs3)=NN2C(=O)CSc2nnc(N)s2)cc1OC (centres undefined)	-4%	1%
C#CCOCCOCCOCCNc1nc(N2CCN(C(=O)[C@H](CCC(=O)O)n3cc(C(N)CC(C)C)nn3)CC2)nc(N2CCN(C(=O)[C@H](Cc3ccc(O)cc3)n3cc(C(N)CC(C)C)nn3)CC2)n1 (some centres undefined)	-12%	i
Cc1c(NC(=O)C(C)Sc2nnc(-c3ccccc3)o2)c(=O)n(-c2ccccc2)n1C (centres undefined)	-4%	-4%
Cc1cc(SCC(=O)OCC(=O)N2CCN(C(=O)c3ccco3)CC2)c(C)cc1Br	-7%	-15%

# The closing 2 compounds of the section above open the next one:
compound	Vaccinia Venus	VACV mCherry inh
Cc1c(NC(=O)C(C)Sc2nnc(-c3ccccc3)o2)c(=O)n(-c2ccccc2)n1C (centres undefined)	-4%	-4%
Cc1cc(SCC(=O)OCC(=O)N2CCN(C(=O)c3ccco3)CC2)c(C)cc1Br	-7%	-15%
COc1ccc(NC(=O)c2nc(SC)ncc2Cl)cc1	0%	i
COc1ccc(C)cc1NC(=O)N(Cc1ccc(C)o1)C1CCN(C(C)=O)CC1	-7%	12%
CN(C)C(CNC(=O)/C=C/c1cccc(Cl)c1)c1ccccc1 (centres undefined)	-21%	-2%
Cc1noc(C)c1C(=O)N1CCCc2ccccc21	-10%	.
Cc1ccsc1C(=O)N1CCC(N2CCC(C(=O)NCC3CCCO3)CC2)CC1 (centres undefined)	6%	-12%
O=C1CC(=O)OC(c2ccc([N+](=O)[O-])cc2)O1	13µM*	13µM*
Cc1ccc(Cn2c(=O)c3cccnc3n(Cc3ccc(F)cc3)c2=O)cc1	-2%	-22%
Cc1ccc(CSCc2nc3ccccc3[nH]2)cc1	-20%	-16%
O=C(O)c1cccnc1SC1CC(=O)N(c2ccc(OC(F)F)cc2)C1=O (centres undefined)	-8%	-23%
NC(=O)c1ncn([C@@H]2O[C@H](CNCc3cc(Cl)ccc3OCc3ccc(Cl)cc3)[C@@H](O)[C@H]2O)n1	-19%	?
CC(C)c1nnc(NC(=O)CN(C)S(=O)(=O)c2ccc3c(c2)OCCO3)s1	-3%	.
CCOc1ccc(NCc2cccn2-c2nnc(N3CCC(C(=O)NCC(C)c4ccccc4)CC3)s2)cc1 (centres undefined)	?	?
COc1ccc(CNC(=O)c2ccc(CNS(=O)(=O)c3ccc(F)cc3)cc2)cc1	-2%	-10%
C=CC(=O)OCCOCCOCCOCCOC(=O)C=C	?	?
CC(=O)c1ccc(NC(=O)NCc2ccc(F)cc2)cc1	-16%	i
CCCCc1c(O)nc(SCC(=O)NC(C)(C)C)n(-c2ccccc2C)c1=O	-5%	-6%
COc1cccc(C(=O)Nc2ccccc2OC(F)(F)F)c1	-2%	-2%
Cc1ccc(OCC(=O)Nc2ccc3c(c2)nc(CCN2CCC(C)CC2)n3C)cc1	-30%	-12%
CN(C)c1ccc(/C=C/C(=O)c2c(O)c3ccccc3oc2=O)cc1	2%	i
CCOC(=O)C1=C(c2ccccc2)NC(=O)NC1c1ccsc1 (centres undefined)	-6%	-5%
CC(=O)c1ccc(OCCCC(=O)Nc2ccc(C)c(S(=O)(=O)N3CCCCC3)c2)cc1	-17%	-27%
Cc1ccccc1NC(=O)CSc1nnc(COc2ccc(Cl)cc2)o1	7%	8%
Cc1c(C(=O)N(C)C)sc2c1c(=O)n(-c1ccc(Cl)c(Cl)c1)c(=O)n2Cc1ccc(F)cc1	-17%	-11%
O=C(NCc1cccc(Cl)c1)c1c2c(nc3ccccc13)C(=O)N(C1CCCCC1)C2	-10%	-22%
O=C(/C=C/c1ccccc1)NC(NC(=S)Nc1cccc(O)c1)C(Cl)(Cl)Cl (centres undefined)	?	?
CC(C)CC(NS(=O)(=O)c1ccc2c(c1)oc(=O)n2C)C(=O)NCCc1ccc(Cl)cc1 (centres undefined)	-7%	-10%
Cc1ccc(S(=O)(=O)N(C)/N=C2/C(=O)N(CC(=O)O)c3ccccc32)cc1	-3%	-11%
CN1C(=O)C2(c3ccccc31)N(c1ccc(Br)cc1)C(=O)CS2(=O)=O (centres undefined)	-3%	1%
